GLA inh pH 4.5 = blocks human alpha-galactosidase A at pH 4.5; P06280; purified enzyme, 4-MU-alpha-Gal fluorescence, pH 4.5; activity change, negative = inhibition, % at 105 µM; 230,000 tested, under 10 active; inconclusive = small, poorly fitted or top-dose-only inhibition, or a rising curve; inactive = flat fitted curve, though single readings scatter; no compound was filed as active;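 note: 0% = full activity with enzyme and -100% = basal without enzyme; dose as in the result columns while the protocol names 77 µM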
Target sequence (P06280 whole entry, looked up): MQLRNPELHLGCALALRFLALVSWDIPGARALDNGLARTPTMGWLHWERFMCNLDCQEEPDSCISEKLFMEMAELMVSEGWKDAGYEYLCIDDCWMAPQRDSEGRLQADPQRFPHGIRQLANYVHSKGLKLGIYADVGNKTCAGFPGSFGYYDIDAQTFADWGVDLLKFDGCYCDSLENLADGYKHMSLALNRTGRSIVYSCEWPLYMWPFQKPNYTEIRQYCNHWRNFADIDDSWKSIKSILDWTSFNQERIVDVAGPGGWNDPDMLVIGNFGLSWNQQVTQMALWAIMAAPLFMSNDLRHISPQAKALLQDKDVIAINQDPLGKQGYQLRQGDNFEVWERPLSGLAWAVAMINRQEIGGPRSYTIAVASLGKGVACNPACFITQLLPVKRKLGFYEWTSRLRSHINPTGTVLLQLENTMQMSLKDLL
Rango release inh = inhibition of RanGTP-driven Rango-importin beta dissociation. Biochemical FRET Rango-importin beta, RanGTP-induced dissociation. O95149+P62826. Potency, µM (top dose mostly 46.1 µM), for inactives: top-dose activity change, negative = inhibition. 0.071% of 340,000 active; active means falling FRET ratio curve, often poorly fitted, with flat reads before Ran was added; inconclusive means other falling curves, or compound fluorescence or quenching; inactive means flat or rising ratio curve;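 note: potency is the fitted concentration of half-maximal effect; % of control where 0% means no effect; nearly all actives have a fitted effect of over 45% in size; -100% = wells without RanGTP and RCC1; the record marks most hits as doubtful in a second field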
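Quantitative HTS using a FRET biosensor: 0.1 uM Rango, 0.25 uM importin beta, 0.6 uM Ran, 2 mM GTP, 0.2 uM RCC1 final, PBS with DTT, Tween-20 and BSA. Post-read taken 45 min after Ran addition.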
Rango-impB inh = prevents formation of the Rango-importin beta complex. Potency, µM (doses to about 92.2 µM), for inactives: top-dose inhibition of complex formation. 0.031% of 340,000 active. Q14974. AID 540263. Rango CFP/YFP FRET sensor + importin beta, 45 min; active = rising FRET ratio curve, often small or poorly fitted; inconclusive = mostly compound fluorescence or quenching in the first reads; inactive = flat curves in all reads;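 note: potency is the fitted concentration of half-maximal effect; 0% = DMSO wells and 100% = buffer wells lacking importin beta; nearly all actives have a fitted effect of over 15% in size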
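FRET biosensor Rango (snurportin 1 IBB between N-terminal EYFP and C-terminal Cerulean), 50 nM in PBS/1 mM DTT/0.02% Tween-20/0.1% BSA, preincubated 5 min RT with compound; 0.125 microM importin beta added, 45 min RT, CFP/YFP FRET ratio read.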
miR-21 FLuc = miR-21 reporter, rising signal; HeLa miR-21 FLuc reporter, luciferase, 48 h; Potency, µM (highest dose often 38.3 µM), inactives show at the highest dose reporter change, positive = more light; 340,000 tested, under 10 active; active = well fitted rising curve with a large enough effect; inconclusive = small, poorly fitted or top-dose-only effect; inactive = no such curve, though single readings can be large or run the other way;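 note: % of control where 0% means no effect; miR-21 action dims this reporter so a rising signal means less miR-21 action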
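HeLa cells endogenously expressing miR-21, stably carrying CMV-driven firefly luciferase with a downstream miR-21 binding site, 2000 cells/well. Titrations up to approximately 40 uM, 48 hours; luciferase luminescence read.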
* marks the source's active call; other numbers are inactive results; ? = inconclusive; nt = no result given.

SMILES | GLA inh pH 4.5 | Rango release inh | Rango-impB inh | miR-21 FLuc
COC(=O)COc1ccc(Oc2cc(C)nc(SC)n2)nn1 | -1.6 | 0.0% | 3.5% | -3.4%
CC1CCc2c(cnc3ncnn23)C1 (stereo unspecified) | 2.6 | -0.9% | 1.4% | -0.4%
Cc1cc(S(=O)(=O)Cc2noc(-c3c(C)noc3C)n2)c(C)cc1Cl | -6.8 | 1.1% | 0.1% | -17.0%
COC(=O)C1=CN(CCOC23CC4CC(CC(C4)C2)C3)C=C(C(=O)OC)C1c1ccsc1 | 27.0 | -23.4% | ? | 17.6%
CS(=O)(=O)n1nc(NCc2cccs2)nc1NCc1cccs1 | 3.2 | -0.3% | 0.3% | -14.6%
CC(=O)COc1ccc2c(C)c(C)c(=O)oc2c1 | -0.4 | 9.4% | 2.1% | -47.7%
CC(C)Cn1c(N)c(C(=O)COC(=O)C2Cc3ccccc3CN2S(C)(=O)=O)c(=O)n(C)c1=O (stereo unspecified) | nt | 4.2% | -1.1% | nt
CCOC(=O)CCc1n[nH]c(=O)[nH]c1=O | 1.0 | 11.4% | 0.6% | -7.9%
O=C(Cn1cc2c(n1)CCCC2)NCCCN1CCN(Cc2ccccc2)CC1 | -4.2 | -1.1% | -1.9% | -2.2%
COc1cc(OC)cc(-c2c(-c3ccc(F)cc3)c3cc(-c4ccc(SC)cc4)ccc3n2C)c1 | nt | 10.3% | ? | nt
Cc1cccc(NC(=S)NCC(c2cccnc2)N2CCOCC2)c1C (stereo unspecified) | -6.8 | 3.7% | -0.7% | -6.2%
Cc1ccc(-n2cnc3ncnc(-c4ccccc4)c32)cc1 | 0.0 | 21.5% | 1.2% | -17.7%
O=C(/C=C/c1ccccc1Cl)Nc1cccnc1 | nt | -6.3% | 6.4% | -27.0%
COc1ccc(CCNC(=O)c2c(C)cc(=O)oc2C)cc1OC | -1.2 | 8.0% | -3.6% | -2.8%
Cc1ccc(N2C(=O)C(NC(=O)c3ccccc3)(C(F)(F)F)C3=C2CC(C)(C)CC3=O)cc1 (stereo unspecified) | -0.9 | 5.0% | -2.3% | 2.0%

Look-ups from the list.
Rango-impB inh result of `CCOC(=O)CCc1n[nH]c(=O)[nH]c1=O` = 0.6%
GLA inh pH 4.5 result of `Cc1cc(S(=O)(=O)Cc2noc(-c3c(C)noc3C)n2)c(C)cc1Cl` = -6.8

More compounds follow:
SMILES | GLA inh pH 4.5 | Rango release inh | Rango-impB inh | miR-21 FLuc
CCN(CC)CC(=O)Nc1cccc(S(=O)(=O)N2CCCC2)c1 | -3.7 | 1.2% | 0.8% | 1.1%
COC(=O)/C=C1/S/C(=N/NC(=O)c2ccc(Cl)cc2Cl)NC1=O | -10.0 | 0.0% | 1.7% | -5.2%
NC(=O)c1ccsc1NC(=O)COC(=O)COc1ccc(C=O)cc1 | nt | 20.5% | 0.6% | nt
Cc1nc2cc(Nc3ccncc3)ccc2s1 | -0.6 | -5.1% | -0.8% | 0.0%
O=C(CCN1C(=O)c2cccc3cccc(c23)C1=O)NC1CCS(=O)(=O)C1 (stereo unspecified) | 3.3 | 9.2% | -0.3% | -15.2%
CC(Sc1nnc(C2CC2)n1C1CC1)C(=O)NC1(C#N)CCCCC1 (stereo unspecified) | nt | -0.8% | 0.3% | nt
O=C(CN1CCOCC1)Nc1nc2cc([N+](=O)[O-])ccc2s1 | -0.8 | 2.2% | -4.2% | -5.6%
COc1ccccc1C(=O)N(Cc1sccc1C)C1CCS(=O)(=O)C1 (stereo unspecified) | nt | 1.9% | 1.7% | -0.8%
COc1ccccc1-c1coc2c(CN3C(C)CCCC3C)c(O)ccc2c1=O (stereo unspecified) | nt | -9.2% | -1.1% | -4.3%
O=C(CCNS(=O)(=O)c1ccccc1C(F)(F)F)NC1CCCCCC1 | nt | -13.5% | -0.3% | nt
CSc1nnc(SCC(=O)Nc2ccc3[nH]c(=O)[nH]c3c2)s1 | nt | 8.1% | 2.8% | nt
Cc1cccc(C(=O)NC(=S)Nc2ccc(Cc3ccncc3)cc2)c1 | 0.5 | -6.5% | 0.6% | 3.8%
Cc1ccc(S(=O)(=O)NNC(=O)C(=O)NNc2ccccn2)cc1 | 5.8 | -6.4% | -0.9% | 8.3%
CCCCCNC(=O)C1c2ccccc2Oc2ccccc21 | nt | 3.2% | 1.4% | -1.8%
CCOc1nc(NC2CCCC2)nc(N2CCC(C)CC2)n1 | nt | 7.8% | 4.8% | -0.9%
COc1ccc(NC(=O)Nc2cccnc2)cc1 | 11.3 | 0.2% | -0.6% | -39.7%
COc1ccc(OC)c(NC(=O)CN(c2ccc(C)cc2)S(=O)(=O)c2c(C)n[nH]c2C)c1 | nt | 9.1% | -0.4% | 11.0%
COc1cccc(NC(=O)Nc2ccc3nc(C)c(C)nc3c2)c1 | nt | ? | ? | -9.3%
O=C1CNC(=O)/C1=C\N1CCN(C(c2ccccc2)c2ccccc2)CC1 | 3.0 | -2.9% | 0.4% | -14.6%
C#CCNc1cc(C)nc2ncnn12 | 7.9 | 3.4% | 0.9% | -7.4%
COc1cccc(NC(=O)C(C)N2C(=O)c3ccccc3S2(=O)=O)c1 (stereo unspecified) | nt | 22.0% | -2.9% | nt
COc1ccc(/C=N/Nc2nncc3ccccc23)c(OC)c1 | 1.7 | -13.0% | -0.8% | -98.2%
Cc1ccc(C(CCNC(C)c2cccs2)c2ccco2)cc1 (stereo unspecified) | -6.0 | -2.5% | -1.5% | 10.4%
CC(C)Cc1nc(SCC(=O)N2CCCC2)c2c(=O)n(C)c(=O)n(C)c2n1 | nt | 35.9% | -2.1% | 1.3%
Cc1ccc(C2Nc3ccccc3NC3=C2C(=O)OC(C)C3)cc1 (stereo unspecified) | 6.4 | 5.0% | 1.0% | -1.1%
CC1(C)C(c2ccccc2)=[N+]([O-])CN1O | -0.8 | 7.7% | 1.1% | -1.7%
O=C(COC(=O)c1nn(-c2ccccc2C(F)(F)F)cc1O)c1ccc(OC(F)F)cc1 | nt | 4.9% | 1.6% | nt
O=C(Nc1ccc(Cl)cc1)N1CCN(Cc2ccc3c(c2)OCO3)CC1 | 10.0 | 7.1% | 6.9% | 3.5%
Nc1nnc(CC(=O)N/N=C/c2ccc(-c3ccccc3)o2)s1 | 7.1 | -2.7% | -3.3% | -15.0%
Cc1ccc(-c2ccnc3nc(Sc4ncc(C(F)(F)F)cc4Cl)nn23)cc1 | -14.9 | 2.8% | -5.3% | -0.5%
COc1ccc(CCN(C)C(=O)CN2C(=O)NC3(CCCCCC3)C2=O)cc1OC | nt | -5.9% | -2.4% | nt
O=C(CN1CCOCC1)Nc1scc(-c2ccccc2)c1C(=O)N1CCOCC1 | -4.3 | -2.1% | 2.0% | -5.1%
COc1ccc(-c2nn(-c3ccccc3)cc2/C=N/NC(=O)c2cccc(S(=O)(=O)Nc3ccccc3Cl)c2)cc1 | -3.4 | -0.7% | -0.6% | -2.2%
CCCNC(=O)OC[C@H]1O[C@H](CCO/N=C/[C@@H](NS(=O)(=O)c2ccc(C)cc2)[C@H](C)/C=C/CC(=O)OC)C=C[C@@H]1Oc1ccc(OC)cc1 | -6.1 | nt | nt | 2.7%
CCCNC(=O)NC(=O)COC(=O)CC(NC(N)=O)c1ccc(Cl)cc1 (stereo unspecified) | -2.0 | 1.2% | 3.0% | -2.3%
CC1(C)OC(=O)C(=CNc2ccccc2F)C(=O)O1 | -10.0 | 8.5% | -3.1% | -2.3%

Nothing new here: entries from further up.
SMILES | GLA inh pH 4.5 | Rango release inh | Rango-impB inh | miR-21 FLuc
COc1cccc(NC(=O)Nc2ccc3nc(C)c(C)nc3c2)c1 | nt | ? | ? | -9.3%
O=C1CNC(=O)/C1=C\N1CCN(C(c2ccccc2)c2ccccc2)CC1 | 3.0 | -2.9% | 0.4% | -14.6%
C#CCNc1cc(C)nc2ncnn12 | 7.9 | 3.4% | 0.9% | -7.4%
COc1cccc(NC(=O)C(C)N2C(=O)c3ccccc3S2(=O)=O)c1 (stereo unspecified) | nt | 22.0% | -2.9% | nt
COc1ccc(/C=N/Nc2nncc3ccccc23)c(OC)c1 | 1.7 | -13.0% | -0.8% | -98.2%
Cc1ccc(C(CCNC(C)c2cccs2)c2ccco2)cc1 (stereo unspecified) | -6.0 | -2.5% | -1.5% | 10.4%
CC(C)Cc1nc(SCC(=O)N2CCCC2)c2c(=O)n(C)c(=O)n(C)c2n1 | nt | 35.9% | -2.1% | 1.3%
Cc1ccc(C2Nc3ccccc3NC3=C2C(=O)OC(C)C3)cc1 (stereo unspecified) | 6.4 | 5.0% | 1.0% | -1.1%
CC1(C)C(c2ccccc2)=[N+]([O-])CN1O | -0.8 | 7.7% | 1.1% | -1.7%
O=C(COC(=O)c1nn(-c2ccccc2C(F)(F)F)cc1O)c1ccc(OC(F)F)cc1 | nt | 4.9% | 1.6% | nt
O=C(Nc1ccc(Cl)cc1)N1CCN(Cc2ccc3c(c2)OCO3)CC1 | 10.0 | 7.1% | 6.9% | 3.5%
Nc1nnc(CC(=O)N/N=C/c2ccc(-c3ccccc3)o2)s1 | 7.1 | -2.7% | -3.3% | -15.0%
Cc1ccc(-c2ccnc3nc(Sc4ncc(C(F)(F)F)cc4Cl)nn23)cc1 | -14.9 | 2.8% | -5.3% | -0.5%
COc1ccc(CCN(C)C(=O)CN2C(=O)NC3(CCCCCC3)C2=O)cc1OC | nt | -5.9% | -2.4% | nt
O=C(CN1CCOCC1)Nc1scc(-c2ccccc2)c1C(=O)N1CCOCC1 | -4.3 | -2.1% | 2.0% | -5.1%
COc1ccc(-c2nn(-c3ccccc3)cc2/C=N/NC(=O)c2cccc(S(=O)(=O)Nc3ccccc3Cl)c2)cc1 | -3.4 | -0.7% | -0.6% | -2.2%
CCCNC(=O)OC[C@H]1O[C@H](CCO/N=C/[C@@H](NS(=O)(=O)c2ccc(C)cc2)[C@H](C)/C=C/CC(=O)OC)C=C[C@@H]1Oc1ccc(OC)cc1 | -6.1 | nt | nt | 2.7%
CCCNC(=O)NC(=O)COC(=O)CC(NC(N)=O)c1ccc(Cl)cc1 (stereo unspecified) | -2.0 | 1.2% | 3.0% | -2.3%
CC1(C)OC(=O)C(=CNc2ccccc2F)C(=O)O1 | -10.0 | 8.5% | -3.1% | -2.3%

Single records (already shown). Order of screens: GLA inh pH 4.5	Rango release inh	Rango-impB inh	miR-21 FLuc
Record of `CCCNC(=O)NC(=O)COC(=O)CC(NC(N)=O)c1ccc(Cl)cc1` (stereo unspecified) : -2.0	1.2%	3.0%	-2.3%
Record of `CCCNC(=O)OC[C@H]1O[C@H](CCO/N=C/[C@@H](NS(=O)(=O)c2ccc(C)cc2)[C@H](C)/C=C/CC(=O)OC)C=C[C@@H]1Oc1ccc(OC)cc1` : -6.1	nt	nt	2.7%

High-throughput results deposited in PubChem BioAssay by National Center for Advancing Translational Sciences (NCATS).

A portion of the library. The share of hits here may be higher or lower than overall.
